TNAP activation fold – stimulation of alkaline phosphatase TNAP activity – biochemical, luminescent, no phosphate acceptor, uHTS, primary screen (AID 1001). purified TNAP, luminescent activation assay, no phosphate acceptor; higher activation fold means a stronger effect. one-dose activation fold at 20 µM; EC50 in µM for titrated hits. actives 0.03% (n = 200,000); in the data active means activation fold from about 3, or a potency from the dose series; inactive means the rest, 99 in 100 with activation fold below about 1.6; further: many of its hits are not listed in these tables
WT yeast gro inh – growth inhibition of WT yeast, mitochondrial fusion screen; actives 2.1% (n = 190,000); inhibition, % at 10 µM; AID 1362; mitochondrial fusion phenotypic screen, WT strain; in the data active means inhibition above about 58%; tested in S. cerevisiae
LYP inhibition – inhibitors of LYP phosphatase, biochemical, fluorescence intensity, uHTS (AID 1779). recombinant LYP phosphatase, fluorescence intensity; higher % means a stronger effect. inhibition, % at 11.5 µM; hits with a dose series show IC50 in µM. actives 0.054% (n = 290,000); in the data active means inhibition above about 50%;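 further: plate controls were vehicle with enzyme for no effect and no enzyme for full effect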
XIAP antagonists – XIAP antagonists, biochemical, IAP family, fluorescence polarization (AID 1018) | XIAP BIR domain, fluorescence polarization peptide displacement; higher % means a stronger effect | one-dose displacement, % at 20 µM; IC50 in µM for titrated hits | actives 0.007% (n = 200,000); in the data active means displacement above about 50%; further: a part of the inactive calls stands beside numbers as strong as those of hits
M1AAP inhibition – malaria alanyl aminopeptidase activity blockers – biochemical, fluorogenic H-Leu-NHMec substrate, 1536-well (AID 1445); recombinant M1AAP, H-Leu-NHMec fluorogenic kinetic assay; higher % means a stronger effect; inhibition, % at 30 µM, or IC50 in µM where a hit was titrated; actives 0.42% (n = 220,000);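 active means primary inhibition above the hit cutoff, then over 50% inhibition at one or more dose response concentrations, cut at about 23% in these data, passing the limit was not always enough; inconclusive means conflicting primary data, or primary hits not chosen for dose response; inactive means low primary inhibition, or under 50% at every dose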;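 further: plate controls were DMSO full reaction for no effect and no enzyme background for full effect; strong numbers were not always called active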
P. falciparum M17LAP – P. falciparum M17LAP inhibitors, primary screen, biochemical, fluorogenic H-Leu-NHMec substrate, 1536-well (AID 1619). recombinant M17LAP, H-Leu-NHMec fluorogenic kinetic assay; higher % means a stronger effect. inhibition, % at 30 µM; hits with a dose series show IC50 in µM. actives 0.38% (n = 220,000);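 active means compound inhibiting the enzyme by more than half at any dose during confirmatory dose-response retesting; inconclusive means strong single-dose inhibitors picked by rank but not retested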;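 further: plate controls were full reaction with DMSO carrier for no effect and no enzyme background for full effect; strong numbers were not always called active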
Yfh1-depleted yeast – mitochondrial function rescue without frataxin homolog – Friedreich's ataxia, plus single-dose screen, dose response (AID 1465); S. cerevisiae Yfh1-off respiration, WST-1 reduction, 72 h; higher fold induction means a stronger effect; fold induction at 50 µM; hits with a dose series show EC50 in µM; actives 0.074% (n = 220,000);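 active means fold induction of absorbance versus untreated yeast above a set limit, then at least 30% activation at any dose in follow-up; inconclusive means repeats straddling the limit, or above it without dose testing; inactive means fold induction below the set limit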;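 further: activators that raise dye reduction in frataxin-depleted yeast; strong numbers were not always called active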
WT yeast gro inh mutant strain – further read-out of WT yeast gro inh, marked with its call; inhibition, %; mitochondrial fusion phenotypic screen, mutant strain inhibition
* marks the source's active call; other numbers are inactive results; i = inactive; u = inconclusive; x = not tested or not shown.

SMILES	TNAP activation fold	WT yeast gro inh	WT yeast gro inh mutant strain	LYP inhibition	XIAP antagonists	M1AAP inhibition	P. falciparum M17LAP	Yfh1-depleted yeast
Cc1ccc(NC2=C(C(=O)c3ccccc3)N(C)S(=O)(=O)c3ccccc32)cc1	0.9	33	16	5%	-3.9%	2%	2%	u
CC(=O)Nc1cccc(NC(=O)CSc2nnc(Cc3cccn3C)n2-c2ccc(F)cc2)c1	1.1	10	15	-4%	-8.1%	9%	6%	i
Nc1n[nH]c(-c2ccccc2)n1	0.6	1	19	-4%	1.9%	0%	6%	i
COc1c(Cl)cnn(-c2ccc(C)cc2)c1=O	1	-19	-23	4%	-6.3%	8%	-11%	i
CCC(C)n1c(C)nc2c(c1=O)c1nc3ccccc3nc1n2CCC1=CCCCC1 (stereo not drawn)	1.1	5	-6	8%	-1.1%	13%	-42%	i
Cc1cc(C(=O)N/N=C/C=C/c2ccc3c(c2)OCO3)n[nH]1	2.6	7	10	-2%	-6.5%	7%	20%	i
CCCS(=O)(=O)N1CCC(C(=O)N2CCN(Cc3ccccc3)CC2)CC1	1.1	1	19	-10%	-0.1%	0%	-5%	i
O=C(CSc1nnc(-c2cccnc2)o1)Oc1ccccc1	1	36	32	0%	-5.0%	3%	-7%	i
Cc1cccc(NC(=S)NC2CC3CCC(C2)N3Cc2ccco2)c1C (stereo not drawn)	1.1	6	-2	-4%	-2.7%	0%	12%	i
CCN(c1ccc(NC(=O)COC(=O)c2ccc(S(=O)(=O)N3CCCC3)cc2)cc1)C(C)C	1	52	18	6%	-9.6%	-2%	4%	i
Nc1cccnc1Sc1ccc(Cl)cc1	1.1	-39	-17	-9%	-6.1%	14%	25%	i
CCOC(=O)Cc1csc(NC(=O)c2c(-c3c(Cl)cccc3Cl)noc2C)n1	0.9	12	9	-3%	-2.4%	-10%	3%	i
CCOCCCn1c(=N)c(C(=O)NCc2ccc3c(c2)OCO3)cc2c(=O)n3cccc(C)c3nc21	1	35	4	4%	-2.2%	-1%	-5%	i
CC(C)CCNC(=O)CN(C(=O)Cn1nnc(-c2ccccc2F)n1)c1cccc2c1CCCC2	2.1	-1	-1	3%	-4.7%	5%	3%	i
O=C(Nc1ccc(Cc2ccncc2)cc1)c1ccc(S(=O)(=O)N2CCOCC2)cc1	1.1	-4	1	-6%	-2.7%	4%	6%	i
COc1ccc(NC(=O)c2ccccc2NC(=O)CSc2ccc(C)cc2)cc1	1.4	10	-1	-4%	-20%	7%	-13%	i
Cc1ccc(Nc2cc(=O)n(C3CCCCC3)c(=O)[nH]2)cc1C	1	5	-3	-4%	-5.1%	0%	2%	i
COc1cc(NC(=O)CSc2ncnc3c2cnn3Cc2ccccc2)cc(OC)c1	1	10	-3	-6%	-7.5%	7%	0%	i
Cc1ccc(S(=O)(=O)NCC(=O)OC(C)C(=O)Nc2ncc(Cl)cc2Cl)cc1 (stereo not drawn)	1.1	-10	-1	-2%	-4.2%	1%	11%	i
CON1C(=O)C(=O)N(OC)C2CCCCC21 (stereo not drawn)	1.1	22	16	-3%	-1.8%	-1%	0%	x

An excerpt of these results, in markdown.
| mol | TNAP activation fold | WT yeast gro inh | WT yeast gro inh mutant strain | LYP inhibition | XIAP antagonists | M1AAP inhibition | P. falciparum M17LAP | Yfh1-depleted yeast |
| --- | --- | --- | --- | --- | --- | --- | --- | --- |
| COc1c(Cl)cnn(-c2ccc(C)cc2)c1=O | 1 | -19 | -23 | 4% | -6.3% | 8% | -11% | i |
| Cc1cc(C(=O)N/N=C/C=C/c2ccc3c(c2)OCO3)n[nH]1 | 2.6 | 7 | 10 | -2% | -6.5% | 7% | 20% | i |

New compounds follow:
SMILES	TNAP activation fold	WT yeast gro inh	WT yeast gro inh mutant strain	LYP inhibition	XIAP antagonists	M1AAP inhibition	P. falciparum M17LAP	Yfh1-depleted yeast
CCCC(=O)N1CCN(c2ccc(NC(=O)C(C)(C)C)cc2)CC1	1	15	1	-3%	-2.9%	5%	-5%	i
COc1cccc(C(=O)N2N=C(c3cccc(OC)c3)CC2(O)C(F)(F)F)c1 (stereo not drawn)	1	15	13	0%	-2.8%	-2%	-5%	i
CCC(C(=O)NC(C)(C)C)N(C(=O)Cn1nnc(-c2ccccc2F)n1)c1cccc2c1CCCC2 (stereo not drawn)	1.1	0	-8	-1%	-3.1%	-1%	-6%	i
CSc1nc(N2CCOCC2)c2c3c(sc2n1)CCC3	1	-23	3	-6%	-1.6%	8%	-2%	i
CCC(C)(C)n1nnnc1C(C(C)C)N(CCCO)Cc1cc2cc(C)ccc2[nH]c1=O (stereo not drawn)	1	4	0	-10%	-1.3%	10%	-3%	i
CCOC(=O)CSc1nc(-c2ccccc2)nc2ccccc12	1	7	-8	1%	-4.7%	3%	15%	i
O=C(NC1(C(F)(F)F)C(=O)Nc2c1c(=O)[nH]c(=O)n2Cc1ccccc1)c1ccc(Cl)cc1Cl (stereo not drawn)	1.1	19	10	-1%	-1.7%	-2%	48%	i
O=c1c2cc(Br)ccc2nc(-c2cccc(C(F)(F)F)c2)n1O	1	9	-3	-5%	-3.7%	-12%	9%	i
O=C(N/N=C/c1c(Cl)cccc1Cl)c1cccc(F)c1	1.1	2	2	-5%	-1.6%	-7%	0%	i
Cc1ccc2cc(C#N)c(SCC(=O)N3CCCc4ccccc43)nc2c1C	1	1	-8	-1%	-2.4%	0%	-8%	x

Part of the list above, field by field.
CON1C(=O)C(=O)N(OC)C2CCCCC21 (stereo not drawn)
  TNAP activation fold = 1.1
  WT yeast gro inh = 22
  WT yeast gro inh mutant strain = 16
  LYP inhibition = -3%
  XIAP antagonists = -1.8%
  M1AAP inhibition = -1%
  P. falciparum M17LAP = 0%
  Yfh1-depleted yeast = x

CCCC(=O)N1CCN(c2ccc(NC(=O)C(C)(C)C)cc2)CC1
  TNAP activation fold = 1
  WT yeast gro inh = 15
  WT yeast gro inh mutant strain = 1
  LYP inhibition = -3%
  XIAP antagonists = -2.9%
  M1AAP inhibition = 5%
  P. falciparum M17LAP = -5%
  Yfh1-depleted yeast = i

COc1cccc(C(=O)N2N=C(c3cccc(OC)c3)CC2(O)C(F)(F)F)c1 (stereo not drawn)
  TNAP activation fold = 1
  WT yeast gro inh = 15
  WT yeast gro inh mutant strain = 13
  LYP inhibition = 0%
  XIAP antagonists = -2.8%
  M1AAP inhibition = -2%
  P. falciparum M17LAP = -5%
  Yfh1-depleted yeast = i

CCC(C(=O)NC(C)(C)C)N(C(=O)Cn1nnc(-c2ccccc2F)n1)c1cccc2c1CCCC2 (stereo not drawn)
  TNAP activation fold = 1.1
  WT yeast gro inh = 0
  WT yeast gro inh mutant strain = -8
  LYP inhibition = -1%
  XIAP antagonists = -3.1%
  M1AAP inhibition = -1%
  P. falciparum M17LAP = -6%
  Yfh1-depleted yeast = i

Screening data deposited in PubChem by several laboratories.

These rows are one share of the data. The share of hits here may be higher or lower than overall.
